High-throughput results as filed in PubChem.
NPR1 antag = blocks ANP-stimulated signaling of human Npr1 receptor | P16066 | HEK293 hNpr1 GloSensor cGMP, ANP-stimulated luminescence | Potency, µM (doses to about 46.3 µM), inactives show at the top dose activity change, negative = inhibition, most hits filed as inhibitors | 76,000 tested, 1.6% active; active = well fitted inhibition curve with a large enough effect; inconclusive = small, poorly fitted or top-dose-only effect; inactive = no such curve, though single readings can be large or run the other way;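 also: nearly all actives have a fitted effect of over 60% in size; nearly all hits also lower the signal before the agonist is added; a reference antagonist and vehicle were the controls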
Target sequence (P16066 whole entry, looked up): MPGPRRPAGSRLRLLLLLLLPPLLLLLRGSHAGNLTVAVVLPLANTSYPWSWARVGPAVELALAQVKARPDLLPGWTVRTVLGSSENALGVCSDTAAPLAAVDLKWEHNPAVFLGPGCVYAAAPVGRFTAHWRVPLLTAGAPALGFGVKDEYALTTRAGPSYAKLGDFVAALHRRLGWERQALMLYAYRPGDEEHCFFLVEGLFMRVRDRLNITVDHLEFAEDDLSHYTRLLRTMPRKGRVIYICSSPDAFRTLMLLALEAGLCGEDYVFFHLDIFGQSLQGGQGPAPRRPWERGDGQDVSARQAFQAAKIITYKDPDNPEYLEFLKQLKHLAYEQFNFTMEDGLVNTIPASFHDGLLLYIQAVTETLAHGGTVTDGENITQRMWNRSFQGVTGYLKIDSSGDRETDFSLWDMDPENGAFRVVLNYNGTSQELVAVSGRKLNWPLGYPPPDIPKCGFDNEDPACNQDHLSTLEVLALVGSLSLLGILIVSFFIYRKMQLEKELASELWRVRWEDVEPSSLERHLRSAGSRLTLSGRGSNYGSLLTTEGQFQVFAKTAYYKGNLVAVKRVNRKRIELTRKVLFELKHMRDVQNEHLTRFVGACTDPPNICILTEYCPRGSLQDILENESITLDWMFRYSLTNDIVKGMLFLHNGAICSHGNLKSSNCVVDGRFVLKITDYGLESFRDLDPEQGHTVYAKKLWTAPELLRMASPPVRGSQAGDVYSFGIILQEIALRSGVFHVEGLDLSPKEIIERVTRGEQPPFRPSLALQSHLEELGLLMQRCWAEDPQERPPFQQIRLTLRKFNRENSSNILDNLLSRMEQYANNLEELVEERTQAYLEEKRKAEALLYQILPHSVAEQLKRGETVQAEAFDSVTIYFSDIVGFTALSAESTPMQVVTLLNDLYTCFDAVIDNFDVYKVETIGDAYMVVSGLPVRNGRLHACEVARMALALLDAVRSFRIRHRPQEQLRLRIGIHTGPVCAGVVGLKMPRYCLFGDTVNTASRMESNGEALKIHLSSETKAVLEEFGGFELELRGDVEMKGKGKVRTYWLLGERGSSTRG
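HEK293 cells stably expressing human Npr1 and cGMP GloSensor pGS-40F, loaded 2 h with 2% GloSensor reagent, given compound 30 min at room temperature. Luminescence read before and 20 min after 0.1 nM hNppA.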
Starred values were filed as active, the others as inactive; ? = inconclusive; [ ] = remark or other dose. % is scaled to controls: 0 for no effect and ±100 for the full control effect; potency is read from the fitted curve at half-maximal effect. These rows are one share of the data; count on the stated rates, not on these rows.

SMILES	NPR1 antag
CN(C)C(=O)c1ccc2ccnn2c1	-1%[70.6 µM]
Cc1ccccc1-c1cc2c(nc1-c1ccccc1)nc(C(=O)NCCN(C)C)n2C	?
COc1ccc(-c2[nH]ncc2CN2CCn3nnc(CCC(=O)N4CCCC4)c3C2)cc1	0%
Cc1ccc(CN2CC[C@H](c3nnc(Cc4ccccc4)o3)C2)cc1	-3%[70.6 µM]
Cc1oc2ccn(Cc3ccc(F)cc3)c(=O)c2c1C(=O)NC1CCCCCC1	-28%
CCO[C@H]1CN(C(=O)c2ccc(N3CCN(C)CC3)cc2)C[C@@H]1O	-1%
CCn1c(CC2CCN(C(=O)CCc3ccc4c(c3)OCO4)CC2)nn(C)c1=O	1%
O=C(Nc1ccc(-c2nnc3n2CCCC3)cc1)Nc1ccccc1Cl	-3%
CN(CCc1noc(C2CN(C(=O)c3ccccc3C(F)(F)F)C2)n1)C(=O)C1CC1	0%
CC(C)C(=O)N1CCc2c(n(Cc3cccnc3)n(CCc3ccccc3)c2=O)C1	2%[70.6 µM]
CNC(=O)[C@@H](c1ccccc1)N1CCC[C@H]1C(=O)NC1CCCCC1	-2%[70.6 µM]
Cn1c(CCNC(=O)C23CCCC=C2N(Cc2ccccc2)C(=O)CC3)nc2ccccc21 (centres undefined)	-10%
CCOC(=O)CCNC(=O)N1CC[C@H]2C(=O)NCCCCCCN(Cc3ccncc3)[C@@H]2C1	2%
CC(C)c1nnc(C2CN(C(=O)c3ccc(Cl)s3)CC23CCOCC3)o1 (centres undefined)	-1%
CN1CCCCCCN(C(=O)C2CCCCC2)[C@H]2CCC[C@H]2C1=O	3%
CN(C)CCNC(=O)C[C@@H]1CCNC[C@@H]1Cc1cc(-c2ccc(C(C)(C)C)cc2)on1	11%[70.6 µM]
Cc1ccc(C(=O)N2C[C@@H](C)[C@](O)(C3CC3)C2)s1	2%
N#Cc1cccnc1N1CCN(c2nccc(N3CCCC(O)C3)n2)CC1 (centres undefined)	-12%
O=C(CCn1ccc(=O)[nH]c1=O)N1CCN(Cc2ccccc2)CC(O)C1 (centres undefined)	0%
O=C(NCc1nnc2cc(-c3nc(C4CC4)no3)ccn12)c1ccc(F)cc1	3%
COc1ccc(-c2cc(N3CCC(NC(=O)c4ccc(N(C)C)cc4)C3)n[nH]2)cc1 (centres undefined)	-9%
CC(C)Cc1cc(CC2(NCc3ccccc3O)COC2)no1	3%[70.6 µM]
Cc1[nH]c2ccc(C(=O)N3CC[C@@](C)(O)[C@@H](O)C3)cc2c1C	6%
COc1ccccc1CN1CC(CNC(=O)Nc2ccccc2)C2(C1)CN(c1ccccc1)C2 (centres undefined)	-15%
Cc1nn2c(c1-c1ccccc1C(C)C)N(Cc1ccc(C(=O)O)cc1)CCC2	0%[70.6 µM]
CS(=O)(=O)N1C[C@@H]2OCC(=O)N(Cc3ccccc3)[C@@H]2C1	0%[70.6 µM]
COc1cccc(CNC(=O)[C@@H]2C[C@@H](O)CN2C2CCN(C(=O)c3cc(C)n(C)n3)CC2)c1	-1%
O=C(COc1ccc(F)cc1)N1CCCC(c2noc(COc3ccccc3F)n2)C1 (centres undefined)	0%
CCN(Cc1ccncc1)C(=O)c1ccc2c(c1)C(O)CCCCCN2CCOC (centres undefined)	-1%
CN(Cc1cccn1C)C(=O)c1cccc(Cl)c1	-5%[70.6 µM]
CC1=Nc2cc(C(=O)NCc3ccc(C)cc3)ccc2Sc2ccc(Cl)cc21	-5%
O=C(CCc1ccccc1)N1CCC2(CC1)CN(c1ncccn1)CC2CO (centres undefined)	-11%
COc1ccc(CCN2C(=O)O[C@@H]3CN(c4nc(C)cc(C)n4)C[C@@H]32)cc1	2%
CN1CCCC2(C1)CN(Cc1cccnc1)c1ccc(C(=O)Nc3ccc(F)cc3)cc12 (centres undefined)	3%[70.6 µM]
Fc1ccccc1CN1CCOC[C@H]1c1ncc(-c2ccc(Cl)s2)[nH]1	?
COc1ccc(OC)c2nc(-c3cccc(Cl)c3)c(CN3CC(O)C3)cc12	1%
COc1ccc(NC(=O)N2CCC3(CC2)CC(N(C2CC2)S(C)(=O)=O)CCO3)cc1 (centres undefined)	-11%
Cc1ccc(F)cc1CN1CCN(C)C2(CCC(=O)N(CC3CC3)CC2)C1 (centres undefined)	-2%
O=C1CCN(C(=O)[C@@H]2CCCN2Cc2cccc(OC(F)(F)F)c2)CCCCCCN1	1%
COc1ccc(NC(=O)C2CCN(c3cnn(C)c(=O)c3)C2)cc1F (centres undefined)	3%
CN(CCOc1ccccc1)Cc1nc(-c2ccccn2)no1	8%
COCC1CN(Cc2cccc(C#N)c2)CC12CCNCC2 (centres undefined)	0%
O=c1[nH]c(C2CCCN(CC3CC3)C2)nn1-c1ccccc1 (centres undefined)	14%[70.6 µM]
COCC(=O)NC[C@@H]1C=C(C)[C@H](Cc2nc3ccc(C(=O)OC)cc3[nH]2)C[C@H]1C(C)C	-10%[70.6 µM]
COc1ccc2nc3n(c2c1)[C@@H](CNCc1ccc2c(c1)OCO2)COC3	32µM*
CNC(=O)NC[C@H]1CCN(Cc2ccc(OC)cc2OC)C[C@H]1N(C)C	-2%
Cc1cccc(C)c1Oc1ncccc1CNC1CCN(C(C)C)CC1	-6%
COc1cccc(CCC(=O)N2CCC(Cc3nc(-c4cnccn4)no3)CC2)c1	2%
O=S(=O)(N1CCOCC1)N1CCOC(CCCc2ccccc2)C1 (centres undefined)	9%
CC(C)CCNC(=O)CC1CCCN(c2cn[nH]c(=O)c2)C1 (centres undefined)	0%
COCC(=O)N[C@H]1C[C@@H](Cc2cc(CN(C)c3ccccc3)on2)C1(C)C	-17%[70.6 µM]
Cc1ccc(NC(=O)N2C[C@@H](F)C[C@H]2C(=O)N2CCCCC2)cc1Cl	1%
CN(C)Cc1cn(C[C@H]2C[C@@H](NS(=O)(=O)c3ccccc3)[C@H](O)[C@@H]2O)nn1	4%[70.6 µM]
COC1CCC12CCN(C(=O)c1ccncc1)CC2 (centres undefined)	-2%
CCCc1sc(NC(=O)C[C@H]2NC(=O)c3ccccc3NC2=O)nc1C(=O)OC	-13%
Cc1ccc(Cl)cc1NC(=O)N1C[C@@H](F)C[C@H]1C(=O)N1CCCCC1	-5%
c1ccc(-c2ccccc2Nc2cnc3ccc(N4CCOCC4)nn23)cc1	-27%[70.6 µM]
CN1[C@@H](CCC(=O)NCc2ccccc2)CNC(=O)[C@@H]2[C@H]1CCN2Cc1ccc(O)cc1	-1%
O=C(C1CCCCC1)N1CCCC(c2noc(COc3ccccc3)n2)C1 (centres undefined)	-2%
CCCCOc1ccc(C(=O)N2CCC[C@H]2c2nc(-c3ccccc3Cl)no2)cc1	-20%

Gathered by group: the compounds so far containing an NH in an aromatic ring (eight)
SMILES	NPR1 antag
COc1ccc(-c2[nH]ncc2CN2CCn3nnc(CCC(=O)N4CCCC4)c3C2)cc1	0%
O=C(CCn1ccc(=O)[nH]c1=O)N1CCN(Cc2ccccc2)CC(O)C1 (centres undefined)	0%
COc1ccc(-c2cc(N3CCC(NC(=O)c4ccc(N(C)C)cc4)C3)n[nH]2)cc1 (centres undefined)	-9%
Cc1[nH]c2ccc(C(=O)N3CC[C@@](C)(O)[C@@H](O)C3)cc2c1C	6%
Fc1ccccc1CN1CCOC[C@H]1c1ncc(-c2ccc(Cl)s2)[nH]1	?
O=c1[nH]c(C2CCCN(CC3CC3)C2)nn1-c1ccccc1 (centres undefined)	14%[70.6 µM]
COCC(=O)NC[C@@H]1C=C(C)[C@H](Cc2nc3ccc(C(=O)OC)cc3[nH]2)C[C@H]1C(C)C	-10%[70.6 µM]
CC(C)CCNC(=O)CC1CCCN(c2cn[nH]c(=O)c2)C1 (centres undefined)	0%

The results go on:
SMILES	NPR1 antag
COc1ccc(-c2cc(N3CCC(NC(=O)c4ccc(Cl)s4)CC3)n[nH]2)cc1	-28%
Cn1cnc(S(=O)(=O)N2CCC[C@H](n3c(=O)n(C)c4cccnc43)C2)c1	-10%
CCn1cc(CN(C)C(=O)c2ccc(N3CC4CC(C3)[C@H]3CCCC(=O)N3C4)nc2)c(C)n1 (some centres undefined)	-1%
NC(=O)[C@@H]1C[C@H](Oc2cccnc2)CN1C(=O)COc1ccc(F)cc1	3%
CCOc1ccc(NC(=O)Cn2cccc2-c2nc(-c3ccccc3)no2)cc1	-4%
CN(c1cc(=O)c2ccnc(-c3cccc(CO)c3)c2o1)C1CCOCC1	1%[70.6 µM]
CCc1ccc(CNC(=O)CCC2CCN(S(=O)(=O)c3ccccc3)CC2)cc1	?
c1cnc2c(c1)ncn2C1CCCC1	0%[70.6 µM]
Cc1ccc(CN2C(=O)OC(c3cccc(NC(=O)c4ccc(C)cc4)c3)C2C(=O)NCC(C)C)cc1 (centres undefined)	?
Cc1ccc(C2Cn3nnc(C(=O)N4CCC(C(=O)NCc5ccccc5)CC4)c3CO2)cc1 (centres undefined)	3%
CC[C@H]1CN(C(=O)Nc2cccc(C(F)(F)F)c2)CC[C@H]1CC(=O)NCc1ccc(OC)c(OC)c1	7%
COc1ccccc1Nc1cnc2ccc(-c3ccccc3OC)nn12	-9%[70.6 µM]
Cc1cccnc1N1CCN(Cc2ccc(-n3cncn3)cc2)CC1	-1%
CNC(=O)[C@H]1C[C@H](Oc2ccccc2)CN1C(=O)c1cc(F)ccc1F	0%
O=C1CN(Cc2ccc(Cl)cc2)CCN1c1ccc(Cl)nn1	-1%
CN(C)c1ccc(C(=O)N2CCN3C(=O)N(CC(N)=O)C(=O)[C@@H]3C2)cc1	1%[70.6 µM]
CN1CCN(c2nc3c(c(=O)[nH]2)CCN(Cc2cccc(Cl)c2)CC3)CC1	-5%
O=C(Nc1cc(F)ccc1F)N1CC(c2nnc(-c3ccncc3)o2)C2(CCOCC2)C1 (centres undefined)	-1%
Cc1noc2c(-c3cccnc3)cc(-c3cccc(C(F)(F)F)c3)nc12	-17%[70.6 µM]
Cc1ccc(NC(=O)N2CCC(c3cc(-c4cccc(C)c4)n[nH]3)CC2)cc1	-19%
CCc1noc(-c2ccn3c(CNC(=O)c4ccc(OC)cc4)nnc3c2)n1	0%
COc1cccc(-c2ccc3c(n2)CN(CC(=O)N2CCCC2)C(=O)CO3)c1	-14%[70.6 µM]
CCN1c2cc(C(=O)Nc3ccc(F)c(C)c3)ccc2C(=O)N2CCCCC21 (centres undefined)	0%
CCC(C)NC(=O)C1COC2(CCN(C(=O)c3cccc(Cl)c3)CC2)N1C(=O)c1ccccc1C (centres undefined)	2%
COc1ccc(C(=O)N2CCC3(CC2)CCC(O)(CN(C)C)CC3)cc1OC	-2%
CCn1cc(CN2CC[C@H]3C(=O)NCCCCCCN(Cc4ccncc4)[C@@H]3C2)c(C)n1	-2%
CC(C)N1C[C@H](O)C[C@H]1c1nnc2n1CCN(C(=O)c1cccn1C)CC2	-6%
COc1ccc(C(=O)NC[C@@H]2C=C(C)[C@H](CC(=O)O)C[C@H]2C(C)C)cc1	2%[70.6 µM]
CN(C)C[C@@H]1CN(S(C)(=O)=O)C[C@H]1NC(=O)COc1ccc(Cl)cc1	0%
c1ccc(OCc2cc(CC3(NCc4ccco4)COC3)no2)cc1	1%[70.6 µM]
O=C(NCC1(COc2ccccc2)C[C@@H](O)[C@@H](O)C1)c1ccc(F)cc1 (some centres undefined)	-11%[70.6 µM]
CCC(O)c1cc2n(n1)CCN(C(=O)Cc1noc3ccccc13)C2 (centres undefined)	0%
COc1ccc(NC(=O)N2CCc3c(nc4cc(-c5ccccc5)[nH]n4c3=O)C2)c(C)c1	-7%
Cc1ccccc1-c1nc2cnccn2c1NCCC(=O)N1CCC(C)CC1	-3%
CCc1nc2c(c(-c3ccc(Cl)cc3)n1)CN(C(=O)c1ccccc1F)CC2	0%
CN(Cc1cccc(C(F)(F)F)c1)C(=O)c1ccccc1	11%[70.6 µM]
COCCNC(=O)[C@@H]1C[C@@H](O)CN1C1CCN(C(=O)C2CCCC2)CC1	1%
O=C(NCC1CN(C(=O)Cc2cccc(OC(F)(F)F)c2)CC12CN(c1ccccc1)C2)Nc1ccccc1 (centres undefined)	-2%
O=C(NCc1ccccc1)c1ccccc1OC1CN(Cc2cccc(F)c2)C1	-16%
c1ccc2c(c1)cnn2CCCn1ccnc1-c1cc2n(n1)CCCNC2	-3%

Shown as a hit in NPR1 antag (from the list above):
SMILES	NPR1 antag
COc1ccc2nc3n(c2c1)[C@@H](CNCc1ccc2c(c1)OCO2)COC3	32µM*

(more compounds)
SMILES	NPR1 antag
O=C(NCc1ccccc1)N1CCC(N2CC(OCC3CC3)C23CCOCC3)CC1 (centres undefined)	3%
O=C(Nc1cccc(-c2nnc3n2CCCC3)c1)c1ccsc1	-7%
CCOC(=O)CCNC(=O)N1CCc2c(nc3cc(-c4ccccc4)[nH]n3c2=O)C1	0%
COc1cccc(C(=O)N2C[C@@H](COc3ccccc3)[C@H](C(N)=O)C2)c1	1%
Cc1ccc(NC(=O)N2CCC(CCNC(=O)CCC3CCCC3)CC2)cc1F	0%
CC(C)n1nc(OC(C)(C)C(=O)NCc2cnccn2)c2cc(CN3CCOCC3)ccc21	-3%
CCC(C)NC(=O)CN1C(=O)C(c2ccccc2)=NC1(C)C (centres undefined)	-2%
